Screening results as filed in PubChem BioAssay.
Rango release inh = inhibition of RanGTP-driven Rango-importin beta dissociation; Potency, µM (series often up to 46.1 µM), inactives show top-dose activity change, negative = inhibition; Biochemical FRET Rango-importin beta, RanGTP-induced dissociation; 340,000 compounds, 0.071% hits; O95149+P62826; active means falling FRET ratio curve, often poorly fitted, with flat reads before Ran was added; inconclusive means other falling curves, or compound fluorescence or quenching; inactive means flat or rising ratio curve;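 also: potency is read from the fitted curve at half-maximal effect; % of control where 0% means no effect; nearly all actives have a fitted effect of over 45% in size; -100% = wells without RanGTP and RCC1; the record marks most hits as doubtful in a second field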
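Rango/importin beta premix (0.1/0.25 uM final), PBS + 1 mM DTT + 0.02% Tween-20 + 0.1% BSA; cpd 5 min RT; FRET pre-read; + RanGTP-RCC1 (0.6 uM Ran, 2 mM GTP, 0.2 uM RCC1); 45 min RT; FRET post-read, ex 430, em 486/530 nm.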
miR-21 FLuc = miR-21 reporter, rising signal. HeLa miR-21 FLuc reporter, luciferase, 48 h. Potency, µM (titrated, usually from 38.3 µM), for the others: at the top dose reporter change, positive = more light. 340,000 tested, under 10 active; active = well fitted rising curve with a large enough effect; inconclusive = small, poorly fitted or top-dose-only effect; inactive = no such curve, though single readings can be large or run the other way;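 also: % of control where 0% means no effect; miR-21 action dims this reporter so a rising signal means less miR-21 action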
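Luminescence from a firefly luciferase reporter carrying a miR-21 binding site downstream, stably expressed under a CMV promoter in HeLa cells that make miR-21 endogenously, reports miRNA modulation after 48 h compound exposure up to approximately 40uM final.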
Rango-impB inh = inhibitors of Rango-importin beta complex formation; 340,000 compounds, 0.031% hits; Q14974; Rango CFP/YFP FRET sensor + importin beta, 45 min; Potency, µM (highest dose often 92.2 µM), inactives show at the highest dose inhibition of complex formation; AID 540263; active = rising FRET ratio curve, often small or poorly fitted; inconclusive = mostly compound fluorescence or quenching in the first reads; inactive = flat curves in all reads;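 also: potency is read from the fitted curve at half-maximal effect; 0% = DMSO wells and 100% = buffer wells lacking importin beta; nearly all actives have a fitted effect of over 15% in size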
Target sequence (Q14974 whole entry, looked up): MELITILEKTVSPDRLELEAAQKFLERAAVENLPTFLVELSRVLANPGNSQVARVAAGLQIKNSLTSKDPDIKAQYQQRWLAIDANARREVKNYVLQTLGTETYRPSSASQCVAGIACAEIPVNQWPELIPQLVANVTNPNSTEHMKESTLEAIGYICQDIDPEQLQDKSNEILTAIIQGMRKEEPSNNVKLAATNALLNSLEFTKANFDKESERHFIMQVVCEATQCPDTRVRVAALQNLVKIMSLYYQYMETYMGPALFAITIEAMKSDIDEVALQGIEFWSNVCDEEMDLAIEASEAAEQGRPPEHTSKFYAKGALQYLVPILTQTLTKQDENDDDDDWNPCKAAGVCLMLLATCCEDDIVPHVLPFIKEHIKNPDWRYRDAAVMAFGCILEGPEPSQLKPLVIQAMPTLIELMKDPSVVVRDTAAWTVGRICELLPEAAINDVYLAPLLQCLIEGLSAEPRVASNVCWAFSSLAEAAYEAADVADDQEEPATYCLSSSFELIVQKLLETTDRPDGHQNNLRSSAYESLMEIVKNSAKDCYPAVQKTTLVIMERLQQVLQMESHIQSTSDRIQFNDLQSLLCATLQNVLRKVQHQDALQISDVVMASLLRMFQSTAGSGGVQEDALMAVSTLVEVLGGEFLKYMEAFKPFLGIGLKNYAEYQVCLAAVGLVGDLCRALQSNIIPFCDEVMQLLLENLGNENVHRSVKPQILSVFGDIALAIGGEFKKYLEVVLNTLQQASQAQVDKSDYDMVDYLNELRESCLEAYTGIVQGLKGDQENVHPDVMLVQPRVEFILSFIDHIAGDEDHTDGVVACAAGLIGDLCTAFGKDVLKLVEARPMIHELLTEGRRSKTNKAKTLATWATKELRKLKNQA
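Inhibition scored from the CFP 486 nm/YFP 530 nm FRET ratio 45 min after adding 0.125 microM importin beta to 50 nM Rango biosensor preincubated 5 min with compound (room temperature, PBS with DTT, Tween-20, BSA). No-importin wells as positive control.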
GLA inh pH 4.5 = inhibitors of human alpha-galactosidase A at pH 4.5. activity change, negative = inhibition, % at 105 µM. purified enzyme, 4-MU-alpha-Gal fluorescence, pH 4.5. 230,000 tested, under 10 active. AID 1467. P06280; inconclusive = small, poorly fitted or top-dose-only inhibition, or a rising curve; inactive = flat fitted curve, though single readings scatter; no compound was filed as active;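 also: 0% = full activity with enzyme and -100% = basal without enzyme; dose as in the result columns while the protocol names 77 µM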
Numbers without * were called inactive; u = inconclusive; x = not tested or not shown; & = joins results of further samples.

SMILES	Rango release inh	miR-21 FLuc	Rango-impB inh	GLA inh pH 4.5
O=C(Cn1cnc2ccccc21)N1CCN(S(=O)(=O)c2ccccc2)CC1	-2.7%	1.3%	-1.9%	12.5
COc1ccc(C2NC(=S)NC(C)=C2C(=O)Nc2ccccn2)cc1 (stereo unspecified)	-0.7%	-19.8%	-1.0%	-9.5
Cc1ccnc2nc(C(=O)Nc3cc(Cl)ccc3N3CCOCC3)nn12	-2.0%	-2.4%	-0.1%	6.6
CCOC(=O)c1c(NC(=O)CSc2nnnn2-c2ccccc2OCC)sc2c1CC(C)(C)NC2(C)C	10.4%	x	5.3%	x
O=C(CCCOc1ccc(Cl)cc1Cl)N1CCc2ccccc2C1	-2.6%	-10.3%	1.4%	-2.8
OCC[C@@H]1C[C@H](O)[C@@H](O)[C@]2(CCCO2)O1	3.3%	x	0.4%	x
O=C(O)CN1C(=O)C2C3CC(C2C1=O)C1C(c2ccccc2)c2sc(=O)[nH]c2SC31 (stereo unspecified)	u	-10.2%	u	-6.5
Nc1ccc(C(=O)N/N=C\C=C\c2cccc([N+](=O)[O-])c2)cc1	-5.7%	-6.7%	-1.6%	-2.2
O=C1CN(C(=O)c2ccccc2)C(c2ccc(F)cc2)c2cc(Br)ccc2N1 (stereo unspecified)	-8.0%	9.7%&18.5%	3.1%	x
CCC(/C=C1\Oc2ccc(OC)cc2N1C)=C\c1sc2ccccc2[n+]1CCCS(=O)(=O)[O-]	-3.9%	x	-2.1%	x
O=C(NC1CCCCC1)N1CCc2ccccc21	-6.5%	-40.5%	-5.0%	-9.2
CCc1nnc(NS(=O)(=O)c2ccc(NCc3ccccc3O)cc2)s1	3.2%	3.5%	0.1%	x
COc1cc(OC)cc(C2=NC3(CCC(C)CC3)NC2=S)c1 (stereo unspecified)	12.4%	1.7%	-0.9%	2.6
O=C(CC1NCCNC1=O)Nc1ccccc1 (stereo unspecified)	1.5%	0.6%	0.1%	6.0
Cc1ccc(N(Cc2ccc(C(=O)Nc3c(C)n(C)n(-c4ccccc4)c3=O)cc2)S(C)(=O)=O)cc1C	18.5%	-3.2%	-3.2%	-16.4
Nc1ccc(-c2sc(N)nc2-c2ccccc2)cc1	0.9%	3.8%	-0.4%	1.6
C=CCOc1ccc2ccccc2c1CNn1cn[nH]c1=S	-18.5%	-17.3%	-1.8%	x
Cc1ccc(CN2CCN(Cc3cnc(C)[nH]3)CC2CCO)cc1 (stereo unspecified)	1.2%	0.3%	-0.2%	9.7
CN(c1ccccc1)S(=O)(=O)c1cccc(NC(=O)CSc2nncn2C)c1	34.8%	0.3%	6.1%	1.5
CCOC(=O)c1c(NC(=S)Nc2ccccc2C)sc2c1CCC2	-9.0%	-4.0%	-1.0%	-0.6
Cc1cccc(C)c1NC(=O)C1(NC(=O)C2CCC(=O)N2)CCCCC1 (stereo unspecified)	0.4%	22.9%	1.6%	-4.4
CCN(CC)c1nc2cc(OC)ccc2cc1C#N	u	15.7%	u	6.4
N#Cc1cccc(NC(=O)CSc2ccc3c4c(cccc24)C(=O)c2ccccc2-3)c1	u	-14.4%	u	-1.2
Cc1ccc(-n2cnc(=O)c3cccnc32)cc1	-12.2%	-15.7%	1.7%	9.2
CC(=O)OC1CCC2(C)C(CCC3C2CC(=O)C2(C)C3CC(C3CCCC3=O)C2C(C)=O)C1 (stereo unspecified)	14.0%	x	-1.5%	x
CC(NC(=O)COC(=O)[C@@H]1CCCN1S(=O)(=O)c1ccccc1F)C12CC3CC(CC(C3)C1)C2 (stereo partly specified)	1.9%	-24.1%	-2.9%	-12.2
O=C(NCC1CCCO1)c1ccc(NS(=O)(=O)c2ccccc2)cc1 (stereo unspecified)	13.4%	-6.6%	1.6%	5.3
Cc1ccccc1NS(=O)(=O)c1nnc(NC(=O)c2ccc(Cl)cc2)s1	-20.5%	-1.4%&-51.0%	-2.9%	x
Cc1ccc(CCNC(=O)c2ccc(CS(=O)(=O)Cc3ccccc3F)o2)cc1	0.6%	12.5%&14.8%	-4.2%	-1.6
Cc1noc(C)c1COc1ccccc1C(=O)NCc1ccccc1Cl	u	x	0.0%	x
Cc1ccc(S(=O)(=O)NCC(=O)OCc2ccccc2Br)cc1	0.1%	0.6%	-1.3%	4.1
CCn1c(=O)c2c3c(sc2n2cnnc12)CCC3	1.3%	-2.0%	-0.2%	-1.3
COc1ccc(CCNC(=O)CN2CCN(Cc3ccc(F)cc3)C2=O)cc1OC	-1.5%	-1.1%	-0.8%	-0.7
COc1ccccc1NS(=O)(=O)c1cc(NC(=O)c2ccc(Cl)nc2)ccc1Cl	16.8%	u	4.2%	-2.6
Cc1[nH]c(C)c(S(=O)(=O)NCc2ccc(OC(C)C)cc2)c1C(=O)N1CCCC1	-1.4%	2.2%	1.0%	x
C=CCC(=O)NC1CC(C)(C)Cc2c1cnn2-c1ccccc1C (stereo unspecified)	-8.2%	-1.2%	-1.0%	x
Cc1ccccc1NC(=O)CS(=O)(=O)c1cn(CC(=O)N2CCOCC2)c2ccccc12	10.6%	0.0%	-3.7%	4.0
CCCCC(=O)Nc1nc(C)c(C(C)=O)s1	-2.0%	-10.8%	-1.0%	-3.0
Cc1c(-c2ccccc2)cnc2c(C)cccc12	-13.5%	x	2.6%	x
COCCN1C(=O)c2cc(C(=O)Nc3ccc(C)c(F)c3)ccc2C1Nc1ccc(C)c(F)c1 (stereo unspecified)	-14.4%	-28.3%	8.3%	7.0
O=C(CCNc1n[nH]c(=O)[nH]c1=O)N1CCOCC1	-3.9%	-0.1%	-1.4%	-2.9
Cc1ccc(NC(=O)c2cnc(N3CCN(c4ccccn4)CC3)c3ccccc23)c(Br)c1	7.2%	u	4.0%	-1.3
COc1cc(CCC(=O)NCc2ccc(Cl)cc2)cc(OC)c1OC	-0.5%	-1.0%	1.8%	x
Cc1cc(Cl)c(S(=O)(=O)NC2CCCC2)cc1OCC(N)=O	0.3%	3.6%	1.6%	x
COc1ccccc1C(=O)NCC(c1cccnc1)N(C)C (stereo unspecified)	-4.4%	-0.7%	-1.9%	-1.0
O=C(C(Cc1ccccc1)n1cccc1)N1CCCCCC1 (stereo unspecified)	-12.0%	0.0%	2.0%	4.6
Cc1cc(Cl)n2c(nc3ccccc32)c1C#N	u	u	u	25.3
O=C(OCC(=O)c1cccs1)c1ccc([N+](=O)[O-])o1	-0.1%	1.5%	-0.2%	6.5
COc1ccc(NC(=S)N(CCc2c(C)[nH]c3ccccc23)Cc2ccco2)cc1	-3.4%	-5.9%	-4.1%	-2.8
CCOC(=O)CNC(=O)C1COc2ccccc2O1 (stereo unspecified)	-2.8%	-5.9%	4.3%	-3.2

Later entries
SMILES	Rango release inh	miR-21 FLuc	Rango-impB inh	GLA inh pH 4.5
CS(=O)(=O)c1ccc2nc(NC(=O)C3CC(=O)N(c4ccccc4)C3)sc2c1 (stereo unspecified)	-20.2%	7.6%	-6.0%	x
Cc1cc(NC(=O)Cn2ccsc2=N)c([N+](=O)[O-])cc1C	-8.3%	-2.1%	-1.3%	5.2
CCc1ccc(N2C(=O)CC(N(CC3CCCO3)C(=O)/C=C/C(=O)O)C2=O)cc1 (stereo unspecified)	19.0%	-2.1%	-2.1%	-3.8
CCCn1c(CNS(=O)(=O)c2ccc(C)cc2)nc2ccccc21	5.2%	-6.5%	0.1%	-6.9
CC(C)N(C(=O)COC(=O)[C@@H]1CC(O)CN1S(=O)(=O)c1ccccc1[N+](=O)[O-])C(C)C (stereo partly specified)	-14.9%	-8.5%	-2.9%	-0.2
O=C1CN(C(=O)COC(=O)CCc2ccccc2O)c2ccccc2N1	-6.3%	x	-0.5%	x
COc1ccc(-c2cc(C(=O)OCC(=O)Nc3ccc4c(c3)OCO4)c3ccccc3n2)cc1	-22.6%	-16.7%	-9.0%	4.1
COc1ccc(-c2csc3ncnc(N4CCN(c5cccc(Cl)c5)CC4)c23)cc1	12.5%	1.5%	-0.4%	x
COc1cc(C(=O)NNC(=O)c2ccc(NC(=O)C(C)(C)C)cc2)cc(OC)c1OC	15.5%	-2.8%	0.3%	-9.2
C=CC[C@H](CC(=O)N(CCO)Cc1ccccc1)C(=O)N[C@H](COC(=O)[C@@H](CC=C)CC(=O)OC(C)(C)C)Cc1c[nH]c2ccccc12	0.7%	x	-2.7%	x
CN(Cc1ccccn1)C(=O)CC1C(=O)NCCN1Cc1ccc(F)cc1Cl (stereo unspecified)	3.1%	-1.8%	u	x
O=C1CCC(c2ccccc2)c2ccccc21 (stereo unspecified)	-13.1%	x	u	x
O=C(COC(=O)Cc1c(Cl)cccc1Cl)NCCC1=CCCCC1	-10.9%	-4.1%	-1.1%	-0.9
O=C(Nc1c(Cl)ccc2nsnc12)c1cccnc1	-8.7%	-0.4%	2.9%	1.4
CCCCc1nc(SCCN2CCOCC2)c2c(=O)n(C)c(=O)n(C)c2n1	-6.9%	-4.0%	-0.7%	-3.5
O=S(=O)(c1ccccc1)N1CCCN(S(=O)(=O)c2ccccc2)CC1	5.1%	0.8%	3.9%	x
COc1ccnc(Oc2ccccc2)c1C#N	-3.0%	-14.1%	-0.6%	3.5
Nn1c(COc2ccccc2F)nnc1SCC(=O)NC1CCCC1	11.2%	-4.9%	0.0%	x
CCc1ccccc1OCC(=O)OCC(=O)c1c(N)n(C)c(=O)n(C)c1=O	1.7%	-3.9%	0.3%	-15.8
CC(=O)OCC(=O)Nc1c(C)cccc1C	-10.9%	1.8%	-2.1%	1.7

Structural class, the entries above with a COOH group
SMILES	Rango release inh	miR-21 FLuc	Rango-impB inh	GLA inh pH 4.5
O=C(O)CN1C(=O)C2C3CC(C2C1=O)C1C(c2ccccc2)c2sc(=O)[nH]c2SC31 (stereo unspecified)	u	-10.2%	u	-6.5
CCc1ccc(N2C(=O)CC(N(CC3CCCO3)C(=O)/C=C/C(=O)O)C2=O)cc1 (stereo unspecified)	19.0%	-2.1%	-2.1%	-3.8

(next part)
SMILES	Rango release inh	miR-21 FLuc	Rango-impB inh	GLA inh pH 4.5
CCOc1ccccc1NC(=O)Cn1c(=O)c(OCC)nc2cnccc21	1.6%	-11.0%	3.4%	x
COc1ccc(-c2nc(Cn3c(SCc4ccc(C)cc4)nc4ccncc43)c(C)o2)cc1OC	0.9%	-23.4%	4.6%	-24.0
O=C1CCCCCN1Sc1ccccc1	14.7%	11.4%	-1.4%	4.2
O=C(NC1CCN(C(=S)Nc2ccccc2)CC1)C1CCCCC1	8.1%	3.2%	2.0%	x
Nc1ccc(S(=O)(=O)N2CCC(Cc3ccccc3)CC2)cc1	25.3%	0.4%	-3.0%	x
C/C(CC(=O)NCCN1CCOCC1)=N\NC(=O)c1ccncc1	-9.0%	-0.6%	1.9%	-1.3
N#C/C(=C\c1cccs1)C(=O)c1ccccc1	8.6%	-5.7%	-0.4%	-0.2
CCOc1ccccc1CNCC1CCCO1 (stereo unspecified)	1.0%	-4.9%	4.6%	x
CCCC12CN3CC(CCC)(CN(C1)C3C(O)C(O)C(O)CO)C2=O (stereo unspecified)	-10.6%	-3.2%	-7.1%	-8.1
O=C(CCN1C(=O)c2ccncc2C1=O)Nc1ccc(F)cc1	20.8%	-1.5%	-0.5%	5.8
Cc1ccccc1CNC(=O)c1ccccc1SCC(=O)NCc1ccco1	-14.7%	x	-3.4%	x
Cc1ccc(C)c(Cn2nnc3c(=O)[nH]c(C4CCN(C(=O)c5ccco5)CC4)nc32)c1	-1.5%	-1.1%	3.5%	x
CCN(CC)C(=O)C1CCCN(C(=O)CCn2nnnc2CN2CCOCC2)C1 (stereo unspecified)	2.2%	0.3%	-2.2%	x
C=CCOC(=O)C1=C(C)Nc2nnnn2C1c1ccc(OC)cc1OC (stereo unspecified)	-6.6%	-7.3%	u	-14.1
CCOC(=O)c1c(-c2ccccc2)nc2c(C)cccn12	24.8%	-6.8%	5.8%	6.4
O=C(COC(=O)c1cccc(S(=O)(=O)N2CCN(c3ccccc3)CC2)c1)NCc1ccco1	-3.7%	0.8%	-1.1%	5.3
O=C1N/C(=N/N=C/c2ccc(F)cc2)SC1c1ccccc1 (stereo unspecified)	-9.3%	-9.0%	-2.5%	-4.4
CCOC(=O)N1CCN(S(=O)(=O)c2ccc(OCC)c3ccccc23)CC1	3.5%	-0.2%	-2.3%	-9.4

Some of the compounds tested; the hit share may differ from the screen's.
